# Casp1 inh: allosteric or competitive inhibitors of human caspase-1; P29466; Caspase-1 enzyme, Ac-WEHD-AFC fluorogenic rate; Potency, µM (highest dose often 57.5 µM), inactives show at the highest dose activity change, negative = inhibition, most hits filed as inhibitors; 75,000 tested, 0.03% active; AID 900;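 also: potency is read from the fitted curve at half-maximal effect; plate controls were vehicle for no effect and no substrate for full effect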
# Caspase-7 inhib: blocks human caspase-7 allosterically or competitively | recombinant caspase-7, Ac-DEVD-AFC fluorescence rate | Potency, µM (titrated, usually from 57.5 µM), for the others: at the top dose activity change, negative = inhibition, hits mostly inhibitors | 75,000 tested, 0.02% active; active = well fitted inhibition curve with a large enough effect in the main read-out, with a control signal flat, not every such curve was filed as active; inconclusive = small, poorly fitted or top-dose-only effect, or a change in a side signal; also: potency is read from the fitted curve at half-maximal effect; % of control where 0% means no effect
# USP2a inh: USP2a (human) protease inhibition; USP2a enzymatic assay, qHTS inhibition; 60,000 tested, 0.1% active; Potency, µM (series often up to 38.3 µM), for inactives: at the highest dose activity change, negative = inhibition, hits mostly inhibitors; O75604;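 also: potency is read from the fitted curve at half-maximal effect; nearly all actives have a fitted effect of over 60% in size; plate controls were DMSO for no effect and NEM full inhibition control for full effect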
#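 20 nM USP2 core + cpd, 30 min RT; add 20 nM Ub-PLA2/20 uM NBD C6-HPC; read Ex460/Em535 at 0 h and 2.5 h. Normalized to NEM; qHTS curve fit/classification.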
# Fluorescein autfl: compound autofluorescence in fluorescein spectral region | max fluorescein-equivalent concentration, M | Compound autofluorescence, 480/540 nm, fluorescein-equivalent; stronger effect = higher value | AID 593 | 59,000 tested, 0.91% active; in the data active = max fluorescein-equivalent concentration above about 10 nM; inconclusive = between about 1.1 nM and that limit
#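 Compounds were pin-transferred into 100 mM Tris buffer, pH 8.0, and incubated 15 min at room temperature. Fluorescence was read at 480 nm excitation/540 nm emission. Signals were normalized to an on-plate six-point fluorescein standard curve as dye-equivalent concentration.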
# Texas Red fluor: compound fluoresces in the Texas Red spectral region. Compound fluorescence, Texas Red channel, 547/618 nm; stronger effect = higher value. max dye-equivalent concentration, M. 59,000 tested, 0.06% active. AID 587; in the data active = max dye-equivalent concentration above about 10 nM; inconclusive = between about 1.1 nM and that limit
#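 Fluorescence at ex 547/em 618 nm, normalized against an on-plate Texas Red standard series to give dye-equivalent concentration per compound concentration. Buffer 100 mM Tris, pH 8.0; 15 min RT incubation before CCD imaging.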
# Rhodamine autofl: compound autofluorescence in rhodamine spectral region. Rhodamine-region fluorescence, 547/598 nm, Tris buffer; stronger effect = higher value. 59,000 tested, 0.05% active. max dye-equivalent concentration, M; in the data active = max dye-equivalent concentration above about 11 nM; inconclusive = between about 1.1 nM and that limit
#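 Read-out is relative fluorescence at 547 nm excitation and 598 nm emission, expressed as dye-equivalent concentration using rhodamine standards on every plate. Each compound was profiled across a concentration series after 15 min in 100 mM Tris, pH 8.0.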
# Active calls of the source: *; i = inactive; ? = inconclusive; / = no result given; & = joins results of further samples; [ ] = another dose, or the depositor's remark. Unless noted, calls follow the shape of the dose curve; as a rule, active = well fitted curve in the direction sought with a large enough effect; inconclusive = small, poorly fitted or top-dose-only effect, or another doubt; inactive = no such curve, though single readings can be large; an effect the other way counts as inactive or inconclusive. The list is partial (hit frequency here may not be typical).
canonical_smiles	Casp1 inh	Caspase-7 inhib	USP2a inh	Fluorescein autfl	Texas Red fluor	Rhodamine autofl
CN1CCC[C@@H]1CCO[C@](C)(c1ccccc1)c1ccc(Cl)cc1	/	-1%	7%[17.1 µM]	?	i	i
CCN(CC)CCCC(C)Nc1ccnc2cc(Cl)ccc12 (stereo not drawn)	2%	1%	-2%	/	/	/
CN(C)CC/C=C1\c2ccccc2COc2ccccc21	0%	-1%	-4%[17.1 µM]	?	?	i
Cc1ccc(-c2cc(C(=O)N3CCN(c4ncccn4)CC3)c3ccccc3n2)cc1	-3%	-3%	28%	?	i	i
C[C@H]1O[C@@H](O[C@H]2[C@@H](O)C[C@H](O[C@H]3[C@@H](O)C[C@H](O[C@H]4CC[C@@]5(C)[C@H](CC[C@@H]6[C@@H]5C[C@@H](O)[C@]5(C)[C@@H](C7=CC(=O)OC7)CC[C@]65O)C4)O[C@@H]3C)O[C@@H]2C)C[C@H](O)[C@@H]1O	1%	-2%	/	/	/	/
Cc1cc(NS(=O)(=O)c2ccc(N)cc2)no1	1%	1%	0%	?	i	i
CC1CC[C@@]2(C(=O)O)CC[C@]3(C)C(=CCC4[C@@]5(C)CCC(O)C(C)(C)C5CC[C@@]43C)C2C1C (stereo partly drawn)	-2%	1%	31%[activator]	/	/	/
C=CCNC(=O)c1cc([N+](=O)[O-])cc2c(=O)[nH]c(Nc3ccc(Cl)c(Cl)c3)nc12	-3%	-8%	/	/	/	/
C[C@@H](CN(C)C)CN1c2ccccc2Sc2ccccc21	0%[25.7 µM]	-1%[25.7 µM]	1%[17.1 µM]	i	i	i
Nc1ncnc2c1ncn2[C@@H]1O[C@H](CO)[C@@H](O)[C@H]1O	1%	1%	/	?	i	i
CCC1=C2CC[C@H]3C(=O)NC(=O)[C@H]3[C@H]2[C@@]2(Cc3ccccc3)C(=NCC(=O)OC)OC(=O)N2C1=O	1%	-3%	/	/	/	/
CCC1(C)CC(=O)NC1=O (stereo not drawn)	-1%	2%	-4%	/	/	/
CN(C)[C@@H]1C(=O)C(C(N)=O)=C(O)[C@@]2(O)C(=O)C3=C(O)c4c(O)ccc(Cl)c4[C@@H](O)[C@H]3C[C@@H]12	/	/	/	?	i	i
CCCC(=O)Nc1ccc(OC[C@@H](O)CNC(C)C)c(C(C)=O)c1	1%[25.7 µM]	1%[25.7 µM]	-8%[17.1 µM]	?	i	i
Cc1ccnc(NC(=O)CCC2CCCCC2)c1	1%	-1%	2%	i	i	i
Nc1ccn([C@@H]2O[C@H](CO)[C@@H](O)[C@@H]2O)c(=O)n1	-1%	0%	/	/	/	/
CN1CCC(=C2c3ccccc3C=Cc3ccccc32)CC1	-1%	1%	4%[17.1 µM]	?	?	i
CC(=O)N[C@H](CC(C)C)C(=O)O	1%	0%	-8%	/	/	/
CN1CCC(=C2c3ccccc3Sc3ccccc32)CC1	-4%	-1%	29%	?	i	i
C[C@@H]1C[C@H]2[C@@H]3CCC4=CC(=O)C=C[C@]4(C)[C@@]3(F)[C@@H](O)C[C@]2(C)[C@@]1(O)C(=O)CO	-4%	-2%	/	/	/	/
Oc1c(I)cc(Cl)c2cccnc12	-4%	-2%	50%[activator]	?	i	i
COc1ccccc1-c1noc(-c2ccncc2)n1	2%	-2%	2%	i	i	i
NS(=O)(=O)c1cccc2c1c([N+](=O)[O-])cc1[nH]c(=O)c(=O)[nH]c12	-6%	-5%	/	/	/	/
NC12CC3CC(CC(C3)C1)C2	1%	-1%	-16%	?	?	i
Cc1noc(C)c1CSc1nnc(C)c(=O)[nH]1	0%	6%	-3%	?	?	i

# Grouped by structure, those above with a COOH group (two)
canonical_smiles	Casp1 inh	Caspase-7 inhib	USP2a inh	Fluorescein autfl	Texas Red fluor	Rhodamine autofl
CC1CC[C@@]2(C(=O)O)CC[C@]3(C)C(=CCC4[C@@]5(C)CCC(O)C(C)(C)C5CC[C@@]43C)C2C1C (stereo partly drawn)	-2%	1%	31%[activator]	/	/	/
CC(=O)N[C@H](CC(C)C)C(=O)O	1%	0%	-8%	/	/	/

# (next part)
canonical_smiles	Casp1 inh	Caspase-7 inhib	USP2a inh	Fluorescein autfl	Texas Red fluor	Rhodamine autofl
CC1(C)S[C@@H]2[C@H](NC(=O)C(N)c3ccccc3)C(=O)N2[C@H]1C(=O)O (stereo partly drawn)	1%[25.7 µM]	0%[25.7 µM]	1%[17.1 µM]	?	i	i
CCC1=C2CC[C@H]3C(=O)N(c4ccccc4)C(=O)[C@H]3[C@H]2[C@@]2(C)C(=NCC3CC3)OC(=O)N2C1=O	-1%	-1%	/	/	/	/
CCc1c(C)[nH]c2c1C(=O)[C@H](CN1CCOCC1)CC2	-3%[25.7 µM]	0%[25.7 µM]	6%[17.1 µM]	?	i	i
COc1ccc(C[C@H](C)NC[C@@H](O)c2ccc(O)c(NC=O)c2)cc1	-1%	-1%	/	/	/	/
CN(C)CCCO[C@H]1[C@@H]2OC(C)(C)O[C@@H]2O[C@@H]1[C@H](O)CO	-3%[25.7 µM]	1%[25.7 µM]	-19%[17.1 µM]	?	i	i
COC(=O)[C@H]1[C@H]2C[C@H]3c4[nH]c5ccccc5c4CCN3C[C@@H]2CC[C@@H]1O	2%&-5%	3%&0%	1%&3%	?	?	i
CN(C)CCOC(c1ccccc1)c1ccccc1	2%	0%	-3%	?	i	i
C1CCN2C[C@H]3C[C@H](CN4CCCCC34)C2C1 (stereo partly drawn)	4%&1%	3%&-1%	-13%&-5%	/	/	/
NO	2%	0%	-2%	?	i	i
CCC1=C(OC(=O)N(CC)CC)N2C(=O)OC(=NCc3ccccc3)[C@]2(C)[C@H]2C1=CC[C@H]1C(=O)N(CC(=O)OC)C(=O)[C@H]12	-3%	-4%	/	/	/	/
Nc1nc2c(c(=O)[nH]1)N(C=O)C(CNc1ccc(C(=O)NC(CCC(=O)O)C(=O)O)cc1)CN2 (stereo not drawn)	-1%	-2%	-3%	/	/	/
C/C=C1\C(=O)C[C@@H]2[C@@H]3CCC4=CC(=O)CC[C@@]4(C)[C@H]3CC[C@@]12C	3%	1%	8%	i	?	i
CCOc1ccc(OCc2ccc(C(=O)OCc3ccccn3)o2)cc1	0%	-1%	-3%	i	i	i
COc1c2occc2cc2ccc(=O)oc12	-3%	-1%	-8%	?	i	i
CO[C@H]1C=CO[C@@]2(C)Oc3c(C)c(O)c4c(O)c(c(C=NN5CCN(C)CC5)c(O)c4c3C2=O)NC(=O)C(C)=CC=C[C@H](C)[C@H](O)[C@@H](C)[C@@H](O)[C@@H](C)[C@H](OC(C)=O)[C@@H]1C	/	/	/	?	i	i
CCN1C(=O)[C@@H]2[C@H](C1=O)[C@@H]1C[C@H]3C(=O)N(CC)C(=O)[C@H]3[C@@H]3C1=C(C(=O)N1C(=O)O/C(=N\CC4CC4)[C@]31C)[C@@H]2C	0%	-2%	/	/	/	/
CCCC(CCC)C(=O)O	3%&0%&2%	-3%&-1%&-1%	-11%&3%	?	i	i
C=CCOc1ccccc1OC[C@H](O)CNC(C)C	-4%[25.7 µM]	2%[25.7 µM]	-9%[17.1 µM]	?	i	i
CSC(=N)N	3%&-1%	2%&0%	0%	?	i	i
CCN1CCC[C@H]1CNC(=O)c1cc(S(N)(=O)=O)ccc1OC	-1%	2%	-1%	?	i	i
C[C@@]12C=CC(=O)C=C1CCC1C3CC(O)[C@@](O)(C(=O)CO)[C@]3(C)CC(O)[C@]12F (stereo partly drawn)	-14%	-1%	-12%	/	/	/

# Among those listed so far, eight have sulfur.
canonical_smiles	Casp1 inh	Caspase-7 inhib	USP2a inh	Fluorescein autfl	Texas Red fluor	Rhodamine autofl
Cc1cc(NS(=O)(=O)c2ccc(N)cc2)no1	1%	1%	0%	?	i	i
C[C@@H](CN(C)C)CN1c2ccccc2Sc2ccccc21	0%[25.7 µM]	-1%[25.7 µM]	1%[17.1 µM]	i	i	i
CN1CCC(=C2c3ccccc3Sc3ccccc32)CC1	-4%	-1%	29%	?	i	i
NS(=O)(=O)c1cccc2c1c([N+](=O)[O-])cc1[nH]c(=O)c(=O)[nH]c12	-6%	-5%	/	/	/	/
Cc1noc(C)c1CSc1nnc(C)c(=O)[nH]1	0%	6%	-3%	?	?	i
CC1(C)S[C@@H]2[C@H](NC(=O)C(N)c3ccccc3)C(=O)N2[C@H]1C(=O)O (stereo partly drawn)	1%[25.7 µM]	0%[25.7 µM]	1%[17.1 µM]	?	i	i
CSC(=N)N	3%&-1%	2%&0%	0%	?	i	i
CCN1CCC[C@H]1CNC(=O)c1cc(S(N)(=O)=O)ccc1OC	-1%	2%	-1%	?	i	i

# High-throughput results (PubChem BioAssay)
